Screens from PubChem BioAssay.
TRPML1 blocker: inhibitors of human TRPML1 channel; activity change, negative = inhibition, % (no concentration beside the values); Q9GZU1; 390,000 tested, 0.02% active; TRPML1-inducible cells, Ca2+ dye fluorescence, FDSS; active compounds read low; inhibition of EC80 agonist-evoked calcium signal; in the data active means activity change below about -50%; inconclusive means about -30% to -50%; inactive means above about -30%;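 also: stimulus is agonist 54-4 at its EC80 concentration; % is scaled to controls: 0 for no effect and ±100 for the full control effect; compound concentration not given in the record; the text of the record puts the active cut at -80%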
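Calcium fluorescence in TRPML1-DL cells induced overnight with Tet: a 110 s read after compound pin addition, then a 110 s antagonist read after challenge with 54-4 at 4 uM final (EC80).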
PINK1 modulator: PINK1 expression modulation | PINK1 immunofluorescence, high-content cytometry, 24 h | Potency, µM (titrated, usually from 76.6 µM), without a hit: at the highest dose activation (PINK1 increase), usual class: activators | 410,000 tested, 0.2% active | AID 624263; active = well fitted activation curve with a large enough effect; inconclusive = small, poorly fitted or top-dose-only effect; inactive = flat fitted curve, though single readings scatter; cell line not stated here;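 also: potency is read from the fitted curve at half-maximal effect; % of control where 0% means no effect; nearly all actives have a fitted effect of over 65% in size; a mitochondrial uncoupler was the plate control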
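Readout is PINK1 immunofluorescence, quantified alongside mitochondrial, cell and nuclear markers by laser-scanning microplate cytometry. Cells from a stable line were exposed to compound titrations (5 concentrations) for 24 hours, with CCCP controls.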
TRPML1 ag: human mucolipin-1 channel agonism; Q9GZU1; TRPML1-expressing cells, Ca2+ dye fluorescence, FDSS; host cell line not named in the record; reference of the full effect not given here; activation, % (no concentration beside the values); 410,000 tested, 0.12% active; AID 624414; in the data active = activation above about 50%; inconclusive = about 30% to 50%; inactive = below about 30%; also: 0% is about no effect; the text of the record puts the active cut at 80%
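Calcium fluorescence on an FDSS kinetic reader gave the read-out. Tet-induced TRPML1-DL cells were plated overnight, dye-loaded (Ca8 with quencher, 45-90 min, room temperature, dark), then read 110 s after compound addition, and again 110 s after 4uM final 54-4 (EC80).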
Six1-Eya2 blk: Six1/Eya2 interaction inhibition; AlphaScreen GST-Six1/His-Eya2 binding, biochemical; active compounds read low; control for the full effect not named in the record; activity change, % (test concentration not listed); 360,000 tested, 0.56% active; in the data active = activity change below about -65%; inconclusive = about -30% to -65%; inactive = above about -30%; also: % is scaled to controls: 0 for no effect and ±100 for the full control effect
Target sequence (O00167 whole entry, looked up): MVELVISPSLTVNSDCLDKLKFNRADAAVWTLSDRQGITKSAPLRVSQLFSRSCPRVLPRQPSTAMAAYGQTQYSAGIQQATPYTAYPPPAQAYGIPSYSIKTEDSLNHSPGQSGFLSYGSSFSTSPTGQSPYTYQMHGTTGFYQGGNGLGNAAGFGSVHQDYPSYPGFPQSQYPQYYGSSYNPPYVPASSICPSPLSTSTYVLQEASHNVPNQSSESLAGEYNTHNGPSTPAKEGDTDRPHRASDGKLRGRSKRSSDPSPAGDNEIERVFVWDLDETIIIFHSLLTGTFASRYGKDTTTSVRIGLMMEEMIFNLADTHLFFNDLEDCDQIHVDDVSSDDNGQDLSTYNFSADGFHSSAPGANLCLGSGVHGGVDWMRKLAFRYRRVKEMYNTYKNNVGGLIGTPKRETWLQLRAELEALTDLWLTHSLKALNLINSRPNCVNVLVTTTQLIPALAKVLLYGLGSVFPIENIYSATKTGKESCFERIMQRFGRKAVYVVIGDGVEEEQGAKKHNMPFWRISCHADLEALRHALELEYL
Target sequence (Q15475 whole entry, looked up): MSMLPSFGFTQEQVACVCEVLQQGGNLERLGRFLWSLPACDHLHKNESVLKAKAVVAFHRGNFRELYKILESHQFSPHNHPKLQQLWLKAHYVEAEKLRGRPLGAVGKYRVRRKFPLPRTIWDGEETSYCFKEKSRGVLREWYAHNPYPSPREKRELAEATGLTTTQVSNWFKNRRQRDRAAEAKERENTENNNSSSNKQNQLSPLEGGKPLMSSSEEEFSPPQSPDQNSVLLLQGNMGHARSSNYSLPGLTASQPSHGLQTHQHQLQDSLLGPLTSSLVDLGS
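Six1/Eya2 binding was read as AlphaScreen signal after compounds were pinned into GST-Six1 plus His-tagged Eya2 (5X stock 250/500 nM) in pH 8.0 Tris/NaCl/TCEP buffer, beads added, then incubated 1 h, 37 C, dark.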
CtBP-E1A blk: inhibitors of CtBP/E1A interaction. 340,000 tested, 0.49% active. AlphaScreen GST-E1A/His-CtBP binding, 1536-well; active compounds read low; control for the full effect not named in the record. AID 651724. activity change, % (concentration not given with the values); in the data active means activity change below about -65%; inconclusive means about -30% to -65%; inactive means above about -30%; also: % is scaled to controls: 0 for no effect and ±100 for the full control effect
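Homogeneous bead-based format: GST-tagged E1A captured on glutathione donor beads, His-tagged CtBP on nickel acceptor beads; compounds precede bead addition by 2 h at 37 °C.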
D2 agonist: human D2 receptor agonism in beta-arrestin assay; P14416; DiscoveRx PathHunter D2 beta-arrestin, luminescence, 90 min; 100% = 57 uM dopamine signal; activation, % (test concentration not listed); 360,000 tested, 0.084% active; AID 624465; in the data active = activation above about 40%; inconclusive = about 15% to 40%; inactive = below about 15%; also: compound concentration not given in the record; the text of the record calls up to 30% inactive
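DiscoveRx PathHunter D2 beta-arrestin cells (2,100/well) attached overnight, then compound-stimulated 90 min at 37 C in HBSS/10 mM HEPES/0.1% Tween-20 buffer; beta-galactosidase complementation read by luminescence after 1 h at ambient temperature. Dopamine 57 uM final (EC100) as control.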
Active calls of the source: *; ? = inconclusive; / = not tested or not shown; & = joins results of further samples; [ ] = remark or other dose.

A first look, 9 compounds:
Order of values – TRPML1 blocker	PINK1 modulator	D2 agonist	TRPML1 ag	Six1-Eya2 blk	CtBP-E1A blk
O=C(CCCn1c(=O)[nH]c2ccccc2c1=O)N1CCN(c2ccccc2)CC1
  10	1.5%	/	-0.5	/	/
COc1ccc(/C=C/C(=O)NCC(=O)N/N=C(/CCC(=O)O)c2ccccc2)cc1
  -8	-3.0%	4.8	1.6	2	-1
COc1ccc2c(c1)C(=O)C(=O)N2CC1COc2ccccc2O1 (configuration not stated)
  /	2.7%	-17	/	-4	-2
Cc1ccc(/C=C2\SC(=S)N(CCCC(=O)NNC(=O)c3ccccc3O)C2=O)cc1
  10	?	0.4	0.7	-2	/
CCN=C1S/C(=C\c2ccc(N3CCOCC3)cc2C)C(=O)N1CC
  -26	15%	1.5	2.7	2	1
Cc1ccc(-c2ccc(CN3C(C)C(=O)N(Cc4cn(CCC5OCCCO5)nn4)CCS3(=O)=O)cc2)cc1 (configuration not stated)
  -7	-0.4%	-2.3	0.6	-5	-12
CC(C)c1nnc(NC(=O)C2CCN(c3nc4ccccc4s3)CC2)s1
  11	13%[38.3 µM]	0.7	4.5	6	3
Cc1cccc(C)c1OCCSc1n[nH]c(N)n1
  9	5.7%	-1.6	-0.7	-1	1
CCc1ccc(/C=C/C(=O)c2cc(Br)ccc(=O)c2O)cc1
  6	-3.6%	-5.0	0.6	-5	9

Main list, from the start:
Order of values – TRPML1 blocker	PINK1 modulator	D2 agonist	TRPML1 ag	Six1-Eya2 blk	CtBP-E1A blk
O=C(CCCn1c(=O)[nH]c2ccccc2c1=O)N1CCN(c2ccccc2)CC1
  10	1.5%	/	-0.5	/	/
COc1ccc(/C=C/C(=O)NCC(=O)N/N=C(/CCC(=O)O)c2ccccc2)cc1
  -8	-3.0%	4.8	1.6	2	-1
COc1ccc2c(c1)C(=O)C(=O)N2CC1COc2ccccc2O1 (configuration not stated)
  /	2.7%	-17	/	-4	-2
Cc1ccc(/C=C2\SC(=S)N(CCCC(=O)NNC(=O)c3ccccc3O)C2=O)cc1
  10	?	0.4	0.7	-2	/
CCN=C1S/C(=C\c2ccc(N3CCOCC3)cc2C)C(=O)N1CC
  -26	15%	1.5	2.7	2	1
Cc1ccc(-c2ccc(CN3C(C)C(=O)N(Cc4cn(CCC5OCCCO5)nn4)CCS3(=O)=O)cc2)cc1 (configuration not stated)
  -7	-0.4%	-2.3	0.6	-5	-12
CC(C)c1nnc(NC(=O)C2CCN(c3nc4ccccc4s3)CC2)s1
  11	13%[38.3 µM]	0.7	4.5	6	3
Cc1cccc(C)c1OCCSc1n[nH]c(N)n1
  9	5.7%	-1.6	-0.7	-1	1
CCc1ccc(/C=C/C(=O)c2cc(Br)ccc(=O)c2O)cc1
  6	-3.6%	-5.0	0.6	-5	9
CCN(CC)S(=O)(=O)c1ccc(N2CCN(c3ccccc3OC)CC2)c(N)c1
  37	-1.2%	-1.9	1.4	-15	-11
Cc1cc(NC(=O)c2c(Br)c(C)nn2C)no1
  1	2.2%	0.6	0.0	-25	-17
CN(c1ccccc1C(=O)Nc1ccccc1C(=O)NCc1ccco1)S(C)(=O)=O
  -7	?	-1.4	-0.1	-4	-5
CCN(CC)C(=O)[C@H]1C[C@H](CC(=O)NCCCOC)C(=O)N2CCc3c([nH]c4cc(CCC(=O)N(C)C)ccc34)[C@]12C
  33	-0.9%	0.0	-0.6	-1	4
N=C1C(c2nc3ccccc3s2)=C(O)CN1Cc1ccccc1
  0	11%	-1.7	-1.1	2	11
O=C(CSc1ncnc2nc[nH]c12)c1ccccc1
  -6	3.6%	-2.2	0.9	0	-3
CC(C)Oc1ccc(CNC2CCOC(C)(C)C2)cc1 (configuration not stated)
  13	8.5%[38.3 µM]	-3.6	0.6	0	4
CC(=O)c1ccc2c(c1)CC1(C2)Cc2cc3c(cc2C1)C(=O)CC3 (configuration not stated)
  4	2.2%	1.2	1.7	-5	1
CC(=O)N1N=C(c2ccccc2)OC1c1ccc([N+](=O)[O-])s1 (configuration not stated)
  -4	6.3%	2.7	0.2	?	-29
O=C(Nc1cccc(C(=O)N2CCN(c3ccccc3F)CC2)c1)c1nsc2ccccc12
  -7	-2.0%	/	1.8	/	/
CC(C)N(C(=O)C[n+]1ccsc1N)c1ccccc1
  4	-1.7%	-3.3	0.2	-14	-4
O=C(Nc1ccc(N2CCOCC2)cc1N1CCOCC1)c1ccc(Br)cc1
  34	8.6%	2.8	0.0	1	7
CN1C(=S)SC(N2OC3C(=O)N(c4ccccc4)C(=O)C3C2c2ccc(Cl)cc2)C1(C)C (configuration not stated)
  -13	3.5%	-3.8	2.5	9	-6
CCC(C)NC(=O)CSc1nc2cc3c(cc2c(=O)n1CCCC(=O)NCc1ccc2c(c1)OCO2)OCO3 (configuration not stated)
  -10	0.9%	/	1.4	/	/
NS(=O)(=O)c1ccc(CCNc2nc(CN3CCCCC3)nc3sc4c(c23)CCC4)cc1
  11	3.6%[38.3 µM]	0.0	0.1	-3	1
C=Cn1cc[n+](CC(=O)c2ccc(Cl)cc2)c1
  18	0.5%	4.4	0.6	4	-4
O=C(COc1ccc(N2CC(C(=O)O)CC2=O)cc1)Nc1cccc(C(F)(F)F)c1 (configuration not stated)
  7	2.3%	0.6	0.9	0	11
CC(=O)c1ccc(NC(=O)C(C)OC(=O)c2ccc3c(c2)nc(C)n3-c2ccccc2)cc1 (configuration not stated)
  18	-0.8%	5.5	1.8	-7	-6
O=C(CSc1nc(=O)n(Cc2ccncc2)c2c1CCC2)Nc1cccc(F)c1
  -13	-0.1%	/	0.4	/	/
Cc1cc(=S)cc(C)n1CCCO
  3	/	0.7	0.3	-1	-7
CN(C)CC(C)(C)CNC(=O)c1cc(=O)c2ccccc2o1
  6	0.1%	-4.9	-0.1	1	5

Next part:
Order of values – TRPML1 blocker	PINK1 modulator	D2 agonist	TRPML1 ag	Six1-Eya2 blk	CtBP-E1A blk
Cc1ccc(C(=O)OCC(=O)N2CC(C)CC(C)C2)cc1S(=O)(=O)N1CCCCC1 (configuration not stated)
  -8	3.0%	-1.6	-0.8	-6	3
Cc1nnsc1C(=O)N/N=C/c1ccc2ccccc2c1O
  -12	2.7%	-3.5	?	-87*	-71*
CCc1ccc(OCc2nnc(SCC(=O)NC3CCCCC3)o2)cc1
  -3	-0.5%	-1.6	0.5	2	5
CCOC(=O)CCCCC(=O)c1[nH]c(=O)[nH]c1Cn1ccnc1
  -6	-1.0%	-3.0	-0.4	-1	-2
Cc1cc(=O)n2nc(N3CCCC3C(=O)NCCCN3CC(C)CC(C)C3)sc2n1 (configuration not stated)
  13	-0.7%	-3.1	0.1	10	0
COc1ccccc1NC(=O)CCCc1nnc2n(C)c(=O)c3sccc3n12
  -9&19	3.3%&-0.9%	0.5	-0.5&0.4	?	?
COC(=O)C1=C(CSCc2ccccc2)NC(=O)NC1c1cc(C)ccc1C (configuration not stated)
  1	26%[38.3 µM]	2.1	2.4	-1	5
COc1cccc(CC(=O)Nc2nc(C)cs2)c1
  29	-0.6%	0.6	-0.3	2	-12
COc1cc(/C=N/NC(=O)c2cccc([N+](=O)[O-])c2)ccc1OCc1ccccc1
  16	13%[38.3 µM]	1.4	1.9	3	4
COCCn1nnnc1C(CC(C)C)N1CCN(c2cccc(OC)c2)CC1 (configuration not stated)
  25	-1.0%	1.4	-1.8	-6	2
Cc1cc(C(=O)NCCC2=CCCCC2)no1
  -3	1.5%	-4.7	-0.2	-3	5
Cc1ccccc1Cn1cc(CCC(=O)NC(C)c2ccccc2)c2ccccc21 (configuration not stated)
  -5	2.3%	/	0.8	/	/
O=C(C1=C[C@H](c2csc3ccccc23)C[C@H](OCc2ccc(CO)cc2)O1)N1CCN(Cc2ccc3c(c2)OCO3)CC1
  -14	-0.1%	3.8	1.0	-24	-18
CCC(C)NC(=O)Cn1c(=O)n(-c2ccccc2)c(=O)c2ccc(C(=O)NCc3ccco3)cc21 (configuration not stated)
  -7	-1.8%	-0.3	3.5	-5	2
CCOC(=O)N1CCN(C(=O)Nc2ccc(Cl)cc2Cl)CC1
  3	0.3%	-2.9	0.5	0	4
C=CCn1c(=O)c(C(=O)NCCN(CC)CC)c(O)c2ccccc21
  11	0.3%	-6.4	-1.0	16	0
O=C(COC(=O)c1cc(S(=O)(=O)NCc2ccccc2)ccc1O)c1cc2ccccc2o1
  1	0.9%	-7.5	0.0	-10	/
NC(=O)CSc1nnc(COc2ccccc2)n1C1CCCCC1
  15	-4.2%[38.3 µM]	0.1	-0.5	0	12
Cc1ccc2oc(=O)c3cnn(CC(=O)NCCC(C)C)c3c2c1
  6	3.8%	-4.0	-0.5	7	1
Cc1ccc(C2=NN(C3=NN=C(N)Cc4ncnn43)C(O)(C(F)(F)F)C2)cc1 (configuration not stated)
  9	3.2%	1.3	-1.3	?	/
C=CCn1c(C)cc(C(=O)COC(=O)c2ccc3c(c2)NC(=O)CS3)c1C
  4	-2.6%	0.7	4.0	-20	-14
CC(C)Oc1snc(Cl)c1C(N)=O
  2	0.5%	-2.4	-0.5	7	1
Cc1ccc(OCCNC(=O)C(C)SCC(=O)Nc2ccc(F)cc2)cc1 (configuration not stated)
  -4	-0.5%	4.8	3.1	3	3
COc1ccc(N(CC(=O)NC2CCCCC2)S(=O)(=O)c2cccnc2)cc1
  -3	1.2%	4.0	0.7	3	2
CN(C)c1ccc(C(=O)C(O)c2ccc(C(C)(C)C)cc2)cc1 (configuration not stated)
  7	?	-1.3	1.2	2	4
CC(COS(N)(=O)=O)Cc1ccc(C(F)(F)F)cc1 (configuration not stated)
  1	3.8%	-2.2	0.4	0	6
Cc1ccc2c(C(=O)CN3CCCCC3CCO)c(C)[nH]c2c1 (configuration not stated)
  5	0.5%	0.5	0.2	4	2
CC(=O)c1sc(Nc2ccccc2)nc1C
  /	-0.9%	-2.6	-0.6	-2	0
CCOC(=O)CN1C(=O)N[C@@H](c2ccccc2)C(C(C)=O)=C1C
  -15	1.5%	-1.7	0.4	2	8
CCn1c(C)nc2cc(C(=O)OCCC(F)(F)F)ccc21
  6	0.3%	-5.6	0.1	4	11
CCOC(=O)c1ccc(NC(=S)Nc2ccccc2)cc1
  11	2.1%	0.4	1.3	3	5
CCCC(C(=O)Nc1cc(S(=O)(=O)N2CCOCC2)ccc1OC)c1ccccc1 (configuration not stated)
  16	17%	12	1.9	2	-2
COc1ccc(NC(=O)CSc2nc(C3CC3)nc3ccccc23)c(OC)c1
  4	14%	-5.7	-0.9	-8	0
